ClpP mod: qHTS Assay for Activators of ClpP; ATP-dependent Clp protease proteolytic subunit (Bacillus subtilis (strain 168)), P80244; actives 1.9% (n = 340,000); Potency, µM (top dose mostly 57.5 µM), inactives show top-dose activity change, negative = active; purified B. subtilis ClpP, FRET peptide cleavage, 20 min; active = well fitted falling curve with a large enough effect; inconclusive = small, poorly fitted or top-dose-only effect; inactive = no such curve, though single readings can be large or run the other way; also: the source files actives as falling curves though it sought activators and does not explain the sign; nearly all actives have a fitted effect of over 65% in size; many hits overshoot -100%
Target sequence (P80244 whole entry, looked up): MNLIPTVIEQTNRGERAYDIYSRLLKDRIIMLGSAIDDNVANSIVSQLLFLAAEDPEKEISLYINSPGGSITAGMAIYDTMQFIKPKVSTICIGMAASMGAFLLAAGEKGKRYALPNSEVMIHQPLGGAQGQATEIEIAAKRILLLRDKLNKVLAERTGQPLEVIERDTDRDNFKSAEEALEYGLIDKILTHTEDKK
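FRET quenching reversal measured ClpP activation: 10 microg/mL B. subtilis ClpP at pH 8 with the FRET-FV decapeptide, read at 430 nm after 320 nm excitation. The 20-min minus 0-min signal was scaled between DMSO/no-enzyme wells and ADEP (5.8 microM final).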
PINK1 modulator: PINK1 expression modulation; PINK1 immunofluorescence, high-content cytometry, 24 h; AID 624263; actives 0.2% (n = 410,000); Potency, µM (top dose mostly 76.6 µM), for inactives: at the highest dose activation (PINK1 increase), most hits filed as activators; active = well fitted activation curve with a large enough effect; inconclusive = small, poorly fitted or top-dose-only effect; inactive = flat fitted curve, though single readings scatter; cell line not stated here;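 also: % of control where 0% means no effect; nearly all actives have a fitted effect of over 65% in size; a mitochondrial uncoupler was the plate control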
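Stable cell line treated 24 h with compounds at 5 concentrations (CCCP controls), then fixed and immunostained for PINK1 plus nuclear and cell stains; PINK1 immunofluorescence quantified by laser-scanning microplate cytometry.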
Numbers without * were called inactive; u = inconclusive. Potency is read from the fitted curve at half-maximal effect.

SMILES | ClpP mod | PINK1 modulator
Cc1ccc(-c2nc3c4ccccc4ccn3c2Cc2cccc(Cl)c2)cc1 | 5.5% | 0.3%
CCC(C)NC(=O)c1[nH]c2cc(C)ccc2c1Sc1ccc(Cl)cc1 (stereo not given) | -19.0% | 2.2%
CC(C)c1ccccc1NC(=O)Cn1cnc2c1c(=O)n(C)c(=O)n2C | 2.3% | 0.4%
CCN(CC)c1cc(C)c(/C=C/c2ccnc3ccccc23)cc1C | -4.2% | 0.0%
Cc1ccc(CCNC(=O)c2cn(C)c3ccc(S(=O)(=O)N4CCCCC4)cc3c2=O)cc1 | -1.3% | 5.7%
Cc1ccccc1CN1C(=O)c2ccccc2S(=O)c2ccc(C(=O)N3CCOCC3)cc21 (stereo not given) | -2.0% | -0.6%
COc1ccc(-c2cc(C(F)(F)F)nc(SCC(=O)NCc3ccc(F)cc3)n2)cc1 | 4.3% | 5.7%
CSCCC(c1nc2ccccc2[nH]1)n1c(C)nc2ccccc21 (stereo not given) | -1.4% | -0.5%
Cc1ccc(Cl)cc1-n1ncc2c(NCCCn3ccnc3)ncnc21 | -3.8% | 1.2%
CCCn1ccc2c(OCC(=O)Nc3cc(C)ccc3C)cccc2c1=O | u | 3.7%

A different layout for part of the listing above:
| canonical_smiles | ClpP mod | PINK1 modulator |
| --- | --- | --- |
| Cc1ccccc1CN1C(=O)c2ccccc2S(=O)c2ccc(C(=O)N3CCOCC3)cc21 (stereo not given) | -2.0% | -0.6% |
| COc1ccc(-c2cc(C(F)(F)F)nc(SCC(=O)NCc3ccc(F)cc3)n2)cc1 | 4.3% | 5.7% |
| CSCCC(c1nc2ccccc2[nH]1)n1c(C)nc2ccccc21 (stereo not given) | -1.4% | -0.5% |

The results go on.
SMILES | ClpP mod | PINK1 modulator
Cc1oc2ccc(O)c(CN3CCOCC3)c2c1C(=O)Nc1ccccc1 | 1.7% | 5.1%
COc1cc(OC)c(NS(=O)(=O)c2cc3c(cc2C)NC(=O)CO3)cc1Cl | 1.4% | 0.2%
COc1ccc(-c2nc(S(=O)(=O)c3ccc(C)cc3)c(N3CCCCC3)o2)cc1 | -1.4% | 1.9%
CCOC(=O)c1[nH]c2c(c1Cc1ccccc1)C(=O)CC(c1ccc(OC)cc1)C2 (stereo not given) | -12.2% | -0.9%
CCCCN(C)CCCNC(=O)Cn1ncc2c3ccccc3n(Cc3cccc(Cl)c3)c2c1=O | -29.8% | 1.0%
O=S1(=O)CC(N2CCCC2)CN1Cc1cn(Cc2cccc(Cl)c2)nn1 (stereo not given) | 1.4% | 1.3%
Cc1cccc(OCC(=O)Nc2ccc(C(=O)OCc3cc(=O)n4nc(C5CC5)sc4n3)cc2)c1 | -5.3% | 1.3%
CCCCNC(=O)c1cc(Sc2ccc(OCC)cc2)nc2ccccc12 | 24.4% | 1.1%
CCc1ccc2occ(CC(=O)Nc3sc4c(c3C(=O)NCCOC)CCCC4)c2c1 | u | 0.9%
COc1ccc(NC(=O)N(Cc2ccco2)C2CCN(C(C)=O)CC2)c(OC)c1 | -0.6% | -1.2%
CCOC(=O)c1cc(S(=O)(=O)Nc2cc(F)ccc2C)[nH]n1 | -0.2% | 0.2%
COc1ccccc1C(=O)Nc1ccc(S(=O)(=O)Nc2ncccn2)cc1 | -0.7% | 1.7%
O=C(NCCC1=CCCCC1)c1ccc2c(c1)N(Cc1ccccc1)C(=O)c1ccccc1S2(=O)=O | -3.7% | 1.0%
Cc1ccc2c(CC(=O)Nc3ccc(S(=O)(=O)N4CCCC(C)C4)cc3)coc2c1 (stereo not given) | -2.4% | -0.1%
CC(C(=O)Nc1ccccc1C(F)(F)F)n1nnc2sc3c(c2c1=O)CCCC3 (stereo not given) | 1.2% | 4.9%
Cc1ccc2c(c1)C(C)(c1ccccc1)CC(C)(C)N2C(=O)c1ccc(F)cc1 (stereo not given) | -4.8% | -1.1%
CSc1ccc(CNc2ncc(-c3ccccc3)n2C)cc1 | -22.5% | -1.6%
c1ccc2c3c([nH]c2c1)CCCC3 | -12.6% | 2.6%
O=C(NCC(c1ccc2c(c1)OCO2)N1CCOCC1)c1ccccc1 (stereo not given) | 0.2% | -0.6%
CCOc1ccc(NC(=O)CSc2oc(-c3ccco3)nc2S(=O)(=O)c2ccccc2)cc1 | -0.7% | 0.2%
CSc1ccc(CCNC(=O)CCn2c(=O)c3cccn3c3cccnc32)cc1 | -18.0% | -0.1%
CC1CN(c2ccc(Cl)cc2)c2nc3c(c(=O)n(CC(=O)O)c(=O)n3C)n2C1 (stereo not given) | -9.0% | -0.1%
COc1ccc(Nc2cc(C(=O)NCc3ccccc3OC)c3ccccc3n2)cc1 | 83.7% | 8.2%
CC(C)Oc1ccc(CNC(=O)c2ccc(NC(=O)N3CCSc4ncccc43)cc2)cc1 | u | 0.1%
Cc1ccc(CSc2nc3cccnc3n2Cc2ccc(C(=O)NCc3cccs3)cc2)cc1 | 5.0% | 11.1%
Cc1cccc(-n2cnc3cc(C(=O)NC4CCCCCC4)ccc32)c1 | -3.1% | 11.3%
CCc1cccc(C)c1NC(=O)CN1C(=O)C2(SCC(=O)N2c2cccc(F)c2)c2ccccc21 (stereo not given) | -2.0% | -5.7%
Cc1ccc(N2CC(NC(=O)C3CCCCC3)CC2=O)cc1C (stereo not given) | 1.5% | 0.7%
Cc1cc(C)c(Cn2c(CCNC(=O)c3ccco3)nc3ccccc32)c(C)c1 | 1.0% | 0.0%
COCCCn1c(=O)c2sccc2n2c(CCCC(=O)Nc3ccc(F)c(F)c3)nnc12 | -24.7% | 2.2%

2 consecutive records from above:
SMILES | ClpP mod | PINK1 modulator
Cc1ccc(CSc2nc3cccnc3n2Cc2ccc(C(=O)NCc3cccs3)cc2)cc1 | 5.0% | 11.1%
Cc1cccc(-n2cnc3cc(C(=O)NC4CCCCCC4)ccc32)c1 | -3.1% | 11.3%

Next part:
SMILES | ClpP mod | PINK1 modulator
Cc1cc(Cl)nc2ccccc12 | 4.3% | 1.0%
Fc1ccc(N2CCN(c3ncnc4onc(-c5ccc(Cl)cc5)c34)CC2)cc1 | -29.3% | 0.8%
Cc1ccc2c(c1)c(=O)c(C(=O)c1ccc3c(c1)OCO3)cn2Cc1ccc(Cl)cc1 | -5.9% | -0.9%
COc1cc(C2c3c(oc4ccccc4c3=O)C(=O)N2c2ccccn2)cc(OC)c1OC (stereo not given) | -3.3% | 0.5%
COc1ccc(NC(c2ccc(F)cc2)c2nnc(-c3ccccc3Cl)o2)cc1Cl (stereo not given) | -1.5% | 0.3%
COc1ccc(S(=O)(=O)Nc2cccc(-c3ccc(N4CCCCCC4)nn3)c2)cc1 | -6.1% | -0.1%
COC(=O)c1c(C)oc2ccc(N(C(=O)c3ccncc3)S(=O)(=O)c3c(C)cc(C)cc3C)cc12 | 1.0% | 0.7%
COc1ccc(N2Cc3cccc(C(=O)Nc4ccc(C)c(C)c4)c3C2=O)cc1 | -0.4% | 4.6%
COc1ccc(OC)c(CNC(=O)C2COc3ccccc3C2)c1 (stereo not given) | -2.2% | 3.8%
CCn1ccc2cc(S(=O)(=O)N3CCCN(C(=O)Nc4ccccc4F)CC3)ccc21 | -4.9% | -1.7%
COc1cccc(N2CCN(C(=O)c3cnn(C(C)(C)C)c3C3CCN(C(=O)OC(C)(C)C)CC3)CC2)c1 | -1.5% | 3.6%
CCc1ccc(OCCCn2c(CCNC(=O)C3CCCCC3)nc3ccccc32)cc1 | -6.9% | 1.9%
COc1ccc(-c2cc(C(F)(F)F)nc(SCC(=O)N3CCCCC3)n2)cc1 | 4.0% | 1.6%
CCOC(=O)c1c(NC(=O)CSc2cn(CCNC(=O)c3ccccc3OC)c3ccccc23)sc2c1CCC2 | -9.2% | 1.2%
Cc1ccc(NC(=O)c2sc3nc(-c4ccncc4)ccc3c2N)cc1 | 1.4% | 31.6µM*
CC(C)(C)NC(=O)C1c2ccccc2OCC(=O)N1CC(F)(F)F (stereo not given) | -2.8% | 1.3%
Cc1ccc(C)c(N2CCN(C3(c4ccccc4)C(=O)c4ccccc4C3=O)CC2)c1 | -1.3% | -0.4%
CCc1ccc(NC(=O)CSc2nc3c([nH]c4ccccc43)c(=O)n2C)cc1 | -5.5% | 1.1%
CCOC(=O)c1c(C)[nH]c(C)c1S(=O)(=O)N(C)CC(=O)Nc1ccc(C)c(N(C)C)c1 | -0.6% | -0.2%
COc1cc(CCC(=O)NCc2ccc3c(c2)CCN3C(=O)c2ccc(F)cc2)cc(OC)c1OC | 1.0% | 1.3%
Cc1ccc(-c2nnc(SCc3ccccc3C)o2)cc1 | -0.6% | 3.3%
CCOc1cc(C2c3c(oc4ccc(F)cc4c3=O)C(=O)N2Cc2ccc(C)cc2)ccc1O (stereo not given) | -11.5% | 0.8%
Cc1ccc(Nc2cc(C(=O)NCc3cccs3)c3ccccc3n2)c(C)c1 | 4.6% | 11.1%
Cc1ccc(Cn2c(SCc3ccc(C(=O)NCCc4ccccc4)cc3)nc3ccncc32)cc1 | -24.3% | 2.3%
CCOC(=O)C1=C(C)NC2=C(C(=O)C(C(=O)OCC)C(c3ccco3)C2)C1c1ccccc1C (stereo not given) | 2.6% | 3.8%
COc1ccccc1N1CCN(c2ncnc3c2c(-c2ccccc2)cn3-c2cccc(Cl)c2)CC1 | 0.5% | 0.8%
Cc1ccc(S(=O)(=O)c2nnn3c2nc(NCc2ccc4c(c2)OCO4)c2sccc23)cc1 | u | 1.7%
O=c1[nH][nH]c2c1[C@@H](c1ccc(F)cc1)O[C@H](C1CCCCC1)C2 | -0.1% | 3.5%
CCCCn1nnnc1C(c1cc2ccccc2o1)N(CCN(C)C)Cc1ccccc1 (stereo not given) | -8.2% | 0.4%
Cc1cc(C)c2c(N)c(C(=O)Nc3ccccc3C(F)(F)F)sc2n1 | 3.9% | 1.9%
CC1CCC(NC(=O)c2ccc3c(c2)N(Cc2ccccc2F)C(=O)c2ccccc2S3=O)CC1 (stereo not given) | -1.6% | -1.4%
CC(C)Cn1cc(NC(=O)N2CCN(c3ccccc3F)CC2)c2ccccc2c1=O | 4.1% | -4.9%
CCOc1ccc(-n2cc(-c3ccccc3)c3c(NC4CCCC4)ncnc32)cc1 | 11.2µM* | 2.1%
COc1ccc2c(c1)c1c(c(=O)n(-c3ccc(F)c(Cl)c3)c(=O)n1Cc1ccccc1C)n2C | 4.4% | -0.3%
CCCN1CCN(CC2=C(C(=O)OCC)C(c3ccc(OC(C)C)cc3)NC(=O)N2)CC1 (stereo not given) | -1.0% | 2.1%
Cc1ccc(-n2ncc3c(Nc4ccc(Oc5ccccc5)cc4)ncnc32)cc1 | -5.7% | 0.7%
CCc1cccc(-n2c(=O)c3cccnc3n2CC(=O)NCc2ccccc2Cl)c1 | 4.1% | 0.4%
CN1CCN(C2CN(Cc3cn(Cc4ccc(C(F)(F)F)cc4)nn3)S(=O)(=O)C2)CC1 (stereo not given) | -0.3% | -1.0%
Cc1ccc(C)c(N2CCN(C(=O)C3CCN(S(=O)(=O)c4cn(C)cn4)CC3)CC2)c1 | -2.1% | -0.7%
COc1ccc(NC(=O)Nc2cn(CC(C)C)c(=O)c3ccccc23)c(OC)c1 | -16.4% | -4.1%
O=C1CN(C(=O)Cc2ccccc2)C(c2ccc(F)cc2)c2cc(Br)ccc2N1 (stereo not given) | -3.0% | -0.5%
Cc1ccc(C)c(-c2[nH]c3c(c2-c2c(-n4cccc4)n(C)c(=O)[nH]c2=O)c(=O)[nH]c(=O)n3C)c1 | 1.1% | 2.5%
Cc1c(C)n(Cc2ccccc2)c2ccc(C(=O)NCc3ccc(OC(C)C)cc3)cc12 | 17.8µM* | -0.9%
Cc1cccc(NC(=O)COc2ccccc2C(=O)Nc2ccccc2)c1 | 17.3% | 0.7%
CCOc1ccc(S(=O)(=O)c2cn(Cc3cc(C)ccc3C)c3ccc(OCC)cc3c2=O)cc1 | 3.9% | -1.5%
C[C@H](c1ccccc1)N1C[C@@H](COCc2ccccc2)Oc2cc(N3CC[C@H](O)C3)ccc2S1(=O)=O | -12.4% | 0.3%
C[N+](C)(C)CCN1CCc2ccccc21 | -7.0% | 1.3%
CCOc1ccccc1NC(=O)N1CCC(N2CCN(Cc3ccccc3)C(=O)C2=O)CC1 | 0.1% | 2.7%
CCCC(=O)Nc1nnc(S(=O)(=O)N(C)Cc2ccc(Cl)cc2)s1 | -1.2% | -1.8%
CCc1ccc(-c2nc(CN3CCC(C(=O)NCCc4ccc(C)cc4)CC3)c(C)o2)cc1 | 1.0% | 0.2%

Single records, from the list above. Values in the order: ClpP mod | PINK1 modulator
`O=C1CN(C(=O)Cc2ccccc2)C(c2ccc(F)cc2)c2cc(Br)ccc2N1` (stereo not given) as listed: -3.0% | -0.5%
`CCOc1ccccc1NC(=O)N1CCC(N2CCN(Cc3ccccc3)C(=O)C2=O)CC1` as listed: 0.1% | 2.7%
`CCc1ccc(-c2nc(CN3CCC(C(=O)NCCc4ccc(C)cc4)CC3)c(C)o2)cc1` as listed: 1.0% | 0.2%

The list goes on:
SMILES | ClpP mod | PINK1 modulator
Cc1cc2c(cc1C)C(c1cccc(OC(C)C)c1)CC(=O)N2 (stereo not given) | 1.9% | 5.7%
Cc1ccc(-n2c3c(cc(C(=O)Nc4ccccc4C(N)=O)c2=O)C(=O)CC(C)(C)C3)cc1 | 61.3% | 1.5%
CCc1ccc(-c2nc(SCC(=O)NCCOC)c(-c3ccc(C)cc3)[nH]2)cc1 | 28.2µM* | 0.0%
O=C(NCc1ccccc1)C1CCN(c2ncnc3c2nc2n3CCCCC2)CC1 | 1.0% | 1.6%

Screening results: PubChem BioAssay, National Center for Advancing Translational Sciences (NCATS)

This is a subset; count on the stated rates, not on these rows.
